Source: PubChem BioAssay
Sa growth 42C: blocks Staphylococcus aureus growth; S. aureus RN4220 growth, OD600, 20 h, 42 °C; active compounds read low; relative growth, % (concentration not given with the values); 170,000 compounds, 0.53% hits; AID 720641;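 active = growth at 42 °C up to 50% and 20 or more points under that at 30 °C, or under 10% at both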;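 also: 300 nL library stock went into each well; scaled to the means of positive and negative controls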
GIV-Gai inh: GIV-Galpha-i interaction inhibition | P08753 | Galpha-i3/FITC-GIV peptide fluorescence polarization, 90 min; active compounds read low; scaled: aluminum fluoride 0%, vehicle 100% | percent of control (FP), % (concentration not given with the values) | 210,000 compounds, 0.42% hits | AID 1224905;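 active = replicate mean at 85% of control or lower, very high polarization wells dropped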;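 also: wells of about 15 µL received 100 nL stock; the first replicate is given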
Target sequence (P08753 whole entry, looked up): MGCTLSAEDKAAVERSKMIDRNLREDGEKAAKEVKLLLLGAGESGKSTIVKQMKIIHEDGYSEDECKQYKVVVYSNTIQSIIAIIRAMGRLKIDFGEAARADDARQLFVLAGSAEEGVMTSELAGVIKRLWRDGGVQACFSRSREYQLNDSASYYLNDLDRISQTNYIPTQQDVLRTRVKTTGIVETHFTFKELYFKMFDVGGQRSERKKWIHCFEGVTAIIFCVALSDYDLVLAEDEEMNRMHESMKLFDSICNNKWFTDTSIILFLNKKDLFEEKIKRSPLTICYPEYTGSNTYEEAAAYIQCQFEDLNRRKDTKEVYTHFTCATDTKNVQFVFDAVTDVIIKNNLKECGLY
HCMV UL50-53 inh: disrupts HCMV UL50-UL53 complex binding. HTRF UL50-UL53 interaction, normalized percent inhibition. inhibition, % (concentration not given with the values). 190,000 compounds, 0.15% hits. AID 1918969;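 active = both replicates at 50% or more, plus weaker picks with an unusually low signal ratio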;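 also: stock transfer was 100 nL into about 20 µL; 0% = negative control wells and 100% = wells with untagged competitor protein; inactives centre near -12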
Sa growth 42C second temp: recorded beside Sa growth 42C, whose call it bears; relative growth, %; measured here: growth at 30 °C;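 optical density after 20 h as mean of two plates; 100% = untreated growth and lower means inhibition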
* marks the source's active call; other numbers are inactive results; nt = not tested or not shown; & = joins results of further samples.

SMILES	Sa growth 42C	Sa growth 42C second temp	GIV-Gai inh	HCMV UL50-53 inh
Cc1nnc(NC(=O)CSc2nnc(-c3ccccc3F)o2)s1	nt	nt	101	-20
COC(=O)c1ccccc1NC(=O)CSc1nc2ccccc2nc1Cc1ccc(F)cc1	99	91	98	nt
CC1(Cc2cn(CCC(=O)O)c3ccccc23)OCCO1	117	99	nt	18
O=C(Cn1c(=O)n(CC2CCC(C(=O)NCCc3ccccc3)CC2)c(=O)c2ccccc21)Nc1ccccc1 (stereo not given)	93	96	103	2
C/C(=N\Oc1nc(-c2ccccc2)ns1)c1cccs1	98	92	107	-20
Cc1ccc(NC(=O)N2CCN(c3cc(=O)n4nc(-c5ccccc5C)sc4n3)CC2)cc1F	nt	nt	84*	-11
O=C(NCCc1ccc(Cl)cc1)c1cccc(NC(=O)N2CCCCc3ccccc32)c1	nt	nt	106	-19
COc1cccc(N2C(=O)/C(=C/C=C/c3ccco3)C(=O)NC2=S)c1	81	46	206	35
O=C1NC(=Nc2ccccc2)S/C1=C/c1cc2c(cc1Br)OCO2	nt	nt	108	-18
CCOC(=O)CC1=C(C(=O)OCC)C(c2c(F)cccc2Cl)C(C#N)=C(N)O1 (stereo not given)	nt	nt	100	-3
Cc1nc2nc(CCc3ccccc3)[nH]n2c(=O)c1C	nt	nt	101	18
O=C(O)CN1C(=O)/C(=C\c2ccsc2)SC1=S	97	87	nt	-101
COc1ccc(C2C(C(=O)Nc3ccccn3)c3ccccc3C(=O)N2c2ccc(OC)cc2)cc1 (stereo not given)	nt	nt	101	-21
CCOc1ccc(N(Cc2nc3nc(C)cc(C)n3n2)C(=O)C(C)(C)C)cc1	nt	nt	110	-21
O=C(Nc1ccccc1-c1ccccc1)c1cccs1	87	84	100	-23
CCn1c(SCC(=O)Nc2ccccc2)nc2c(c1=O)SCC2	92	92	101	-8
O=C(CN1C(=O)c2cccc3cccc1c23)N1CCCCC1	99	90	97	-65
CCC(=O)Nc1ccc2c(c1)ncn2C	98	87	95	0
CCc1cc2c(cc3c(=O)n(CC(=O)NC(C)c4ccc5c(c4)OCCO5)nc(CC)n32)s1 (stereo not given)	87	92	101	nt
CCSc1ncc(Cl)c(C(=O)Nc2ccc(S(N)(=O)=O)cc2)n1	nt	nt	104	-22
Clc1ccc2c(c1)-c1c(cnc3cc(-c4ccccc4)nn13)CO2	102	84	106&102	-5&-9
CCOc1ccc(NC(=O)N2CCN3CCCCC3C2)cc1 (stereo not given)	95	85	101	nt
O=C(CSc1nnc(-c2ccc(Cl)cc2)n1CC1CCCO1)Nc1ccc2c(c1)OCCO2 (stereo not given)	115	108	nt	-5
COc1ccccc1N1CCN(C(=O)c2nn(C)c3c2CS(=O)(=O)c2ccccc2-3)CC1	99	94	101	-18
CN(Cc1ccccc1)C(=O)COC(=O)C1CC2C=CC1C2 (stereo not given)	94	94	nt	0
CC12CN3CC(c4ccccc4)(CN(C1)C3c1ccc(Cl)cc1)C2=O (stereo not given)	106	87	97	-30
N#CC1=C(SCC(=O)Nc2ccc(Br)cc2)NC(=O)CC1c1ccc(O)cc1 (stereo not given)	nt	nt	97	-30
Nc1ccc(C(=O)OCC(=O)NC23CC4CC(CC(C4)C2)C3)cc1	104	89	nt	-29
Cc1ccc(N2C(N)=C(C#N)C(c3cccnc3)C3=C2CC(C)(C)CC3=O)cc1 (stereo not given)	113	100	110	-20
COc1ccccc1NC(=O)c1cnn(-c2ccccc2)c1-n1cccc1	84	91	101	7
COc1ccc(-n2c(-c3ccc(C(C)(C)C)cc3)n[nH]c2=S)cc1	82	104	101	nt
COc1cccc(C2C(C(=O)Nc3ccccc3)=C(C)N=c3s/c(=C\c4cn(CC#N)c5ccccc45)c(=O)n32)c1 (stereo not given)	nt	nt	127	-20
COC(=O)C(Cc1c[nH]c2ccccc12)NS(=O)(=O)c1ccc(CNC(=O)c2ccccc2)s1 (stereo not given)	125	84	108	-4
COc1ccc2c(Sc3ccc(C)cc3)c(C(=O)NCc3ccc(F)cc3)[nH]c2c1	110	91	97	-15
Cc1ccc(C(=O)N2CCC(N3CCN(Cc4ccc(F)cc4)C3=O)CC2)cc1	nt	nt	107	-24
CC(=O)O/N=C(\N)c1ccc(Br)cc1	89	105	99	-12
COc1ccc(NC(=O)Cn2c(SCc3ccc(F)cc3)nc3cccnc32)cc1OC	129	83	104&103	-4
O/N=C/c1cnc(-c2ccccc2)[nH]1	102	88	97	-13
COCCCNC(=O)C1CCN(c2nnc(-n3cccc3CNc3ccc(C)cc3)s2)CC1	102	98	104	-1
O=C(CCC(=O)N1CC2CCCN2c2ccccc21)NCc1ccc(F)cc1 (stereo not given)	110	92	100	nt
Cc1ccc(CNC(=O)c2nnc(Cc3ccc(Cl)cc3)o2)cc1	106	83	103	-4
O=c1c2oc3ccccc3c2n(Cc2ccc(F)cc2)c(=O)n1Cc1ccc2c(c1)OCO2	91	91	101	-30
CC(=O)NNc1ccc2nnc(-c3ccccc3)n2n1	99	97	100	6
COc1ccc(N(CC(=O)NCc2ccccc2Cl)S(=O)(=O)c2c(C)nn(C)c2C)cc1	101	81	102	-27
Cc1ccc2nc(SCC(=O)O)[nH]c2c1	113	99	nt	1
CN(C(=O)C1=Cc2cc(Cl)ccc2OC=C1)c1ccccc1	nt	nt	102	-21
CCC1CCCCN1C(=O)c1cc(-c2ccc(OC)c(OC)c2)on1 (stereo not given)	86	91	100	-12
CSc1cccc(NC(=O)CN2C(=O)COc3ccc(S(=O)(=O)N4CCC(C)CC4)cc32)c1	132	92	109	nt
COC(=O)C1=C(C)N=c2s/c(=C\c3cc(Br)ccc3OC(C)=O)c(=O)n2C1c1cccs1 (stereo not given)	nt	nt	104	-11
O=C(NCc1cc(=O)n2nc(-c3ccccc3)sc2n1)Nc1ccc(Cl)cc1	nt	nt	101	-41
O=c1c2ccccc2nc2c3ccccc3c(NCCO)nn12	94	91	103	-46
COC(=O)c1ccc(C(c2c(O)ccc3ccccc23)N2CCOCC2)cc1 (stereo not given)	102	96	nt	-11
CC(C)Cn1cc(NC(=O)NCc2ccccn2)c2ccccc2c1=O	83	86	94	-35
CCOC(=O)c1c(Cl)c2ccccc2oc1=O	97	99	104	-32
COc1ccc(Nc2cc(C(=O)NCCc3ccc(C)cc3)c3ccccc3n2)c(OC)c1	105	93	104	-10
COc1ccc(-c2cc3ccc(O)c(CN4CCOCC4)c3oc2=O)cc1	92	86	107	nt
C=CC(=O)Nc1cc(C(=O)OC)ccc1C(=O)OC	105	100	nt	10
CCOc1ccc(N2C(=O)CN(CC(C)C)[C@H]3CS(=O)(=O)C[C@H]32)cc1	nt	nt	111	-19
CCOc1ccc(CNCc2c(C(=O)O)n(Cc3ccc(C)cc3)c3cc(C)ccc23)cc1	107	79	97	nt
CC(NC(=O)c1cc2n(n1)CCCN(Cc1ccccc1)C2=O)c1ccc2c(c1)OCCO2 (stereo not given)	nt	nt	103	-29

More entries:
SMILES	Sa growth 42C	Sa growth 42C second temp	GIV-Gai inh	HCMV UL50-53 inh
O=C(O)CCCN=C(c1ccc(Cl)cc1)c1cc(F)ccc1O	88	62	nt	-14
Cc1ccc2c(=O)c(C(=O)c3ccc(F)cc3)cn(CC(=O)Nc3ccc4c(c3)OCCO4)c2n1	88	96	111	nt
COc1ccc(CC(CN)c2ccccc2)cc1 (stereo not given)	116	77	105	-1
COc1ccc(N2C(=O)CCS2(=O)=O)cc1S(=O)(=O)N1CCc2ccccc21	nt	nt	104	-1
Cc1ccc(C2c3c(-c4ccccc4O)n[nH]c3C(=O)N2CCc2ccccc2)cc1 (stereo not given)	100	105	103	9
COc1ccc2cc(Br)ccc2c1CC(=O)N1CCOCC1	103	97	102	-35
Cc1cc2c(cn1)C(CCC#N)(CCC#N)c1ccccc1-2	101	93	105	-1
O=C1CSC2(C(=O)N(Cc3cccc(F)c3)c3ccccc32)N1c1cccc(C(F)(F)F)c1 (stereo not given)	80	82	99	nt
CN(Cc1ccccc1)S(=O)(=O)c1ccc2[nH]c3c(c2c1)CCCCC3	108	94	101	nt
CN1C(=O)/C(=C/c2c(N(C)C)nc3ccccn3c2=O)SC1=S	114	68	289	nt
COC(=O)C1=C(C)NC(=S)NC1c1ccccc1 (stereo not given)	96	90	104	-8
Clc1ccc(SCc2ccsc2-c2ncns2)cc1	99	62	101	0
CN(C)CC1CCCCC1OC(=O)c1ccc(Br)o1 (stereo not given)	95	89	nt	-16
COc1ccc(OCCOc2cccc(N)c2)cc1	89	73	105	4
CC1CN(C(=O)c2cc(F)c(F)cc2Cl)CC(C)O1 (stereo not given)	108	92	100	-16
COC(=O)C1=C(C)Nc2c(c(=O)n(C)c(=O)n2C)C1c1ccc(C)cc1 (stereo not given)	98	91	nt	-26
CC(=O)Nc1ncc2c(n1)CC(c1ccc(Cl)cc1)CC2=O (stereo not given)	91	77	101	-7
COCc1nc2ccccc2n1CCOc1ccccc1	nt	nt	104	4&4
O=C(CN1C(=O)COc2ccccc2C1=O)c1ccc(Cl)cc1	nt	nt	104	4
Cc1cc(C)nc(NS(=O)(=O)c2ccc(NC(=O)CSc3nnc(N)s3)cc2)n1	nt	nt	100	-6
CCOC(=O)c1sc(SCCO)c2c1CC(C)(C)CC2=O	106	90	99	-13
CC1(C)CC(=O)C2=C(C1)NC(Nc1nc3ccccc3o1)=NC2c1ccccn1 (stereo not given)	105	93	105	6
O=C(NC1CCCCC1)c1cccn1-c1cccnc1	nt	nt	101	-34
CCC(=O)N1CCc2cc(S(=O)(=O)CCC(=O)N3CCN(c4cc(C)ccc4C)CC3)ccc21	105	88	104	-19
O=C(O)C(Cc1ccccc1)N1Cc2ccccc2C1=O (stereo not given)	nt	nt	103	7
COc1ccc2c(c1)cc1n2CCN2CCCN=C12	85	86	104	-71
CC(=O)c1ccc(NC(=O)CSc2cn(CC(=O)N3CCCCCC3)c3ccccc23)cc1	85	81	108	nt
COc1ccc(-c2cc(=O)c3cc(OCC(N)=O)ccc3o2)cc1	87	90	100	-11
O=S1(=O)C=C(CSc2cccs2)c2cc(Cl)ccc21	123	97	102	-3
C=C(C)CN(CC)Cc1ccc(O)cc1	107	95	104	-20
Cc1nc2c(cnn2-c2ccccc2)c(=O)n1NC(=O)Nc1ccc(Cl)c(Cl)c1	96	82	106	-21
COc1ccc(-c2ocnc2C(=O)NCc2ccc(Cl)cc2)cc1	nt	nt	104	-7
O=S(=O)(Nc1ccc(N2CCCCC2)cc1)c1ccc(-c2ccon2)s1	93	79	105	-30
COc1ccc(Cl)c(OC)c1C(=O)NC(=O)Nc1c(C)cccc1C	72	89	103	-19

Part of the list above, with values under each structure.
Fields: Sa growth 42C, Sa growth 42C second temp, GIV-Gai inh, HCMV UL50-53 inh
Cc1nnc(NC(=O)CSc2nnc(-c3ccccc3F)o2)s1
  nt, nt, 101, -20
COC(=O)c1ccccc1NC(=O)CSc1nc2ccccc2nc1Cc1ccc(F)cc1
  99, 91, 98, nt
CC1(Cc2cn(CCC(=O)O)c3ccccc23)OCCO1
  117, 99, nt, 18
O=C(Cn1c(=O)n(CC2CCC(C(=O)NCCc3ccccc3)CC2)c(=O)c2ccccc21)Nc1ccccc1 (stereo not given)
  93, 96, 103, 2
C/C(=N\Oc1nc(-c2ccccc2)ns1)c1cccs1
  98, 92, 107, -20
Cc1ccc(NC(=O)N2CCN(c3cc(=O)n4nc(-c5ccccc5C)sc4n3)CC2)cc1F
  nt, nt, 84*, -11
O=C(NCCc1ccc(Cl)cc1)c1cccc(NC(=O)N2CCCCc3ccccc32)c1
  nt, nt, 106, -19
COc1cccc(N2C(=O)/C(=C/C=C/c3ccco3)C(=O)NC2=S)c1
  81, 46, 206, 35
O=C1NC(=Nc2ccccc2)S/C1=C/c1cc2c(cc1Br)OCO2
  nt, nt, 108, -18
CCOC(=O)CC1=C(C(=O)OCC)C(c2c(F)cccc2Cl)C(C#N)=C(N)O1 (stereo not given)
  nt, nt, 100, -3
Cc1nc2nc(CCc3ccccc3)[nH]n2c(=O)c1C
  nt, nt, 101, 18
O=C(O)CN1C(=O)/C(=C\c2ccsc2)SC1=S
  97, 87, nt, -101
COc1ccc(C2C(C(=O)Nc3ccccn3)c3ccccc3C(=O)N2c2ccc(OC)cc2)cc1 (stereo not given)
  nt, nt, 101, -21
CCOc1ccc(N(Cc2nc3nc(C)cc(C)n3n2)C(=O)C(C)(C)C)cc1
  nt, nt, 110, -21
O=C(Nc1ccccc1-c1ccccc1)c1cccs1
  87, 84, 100, -23
CCn1c(SCC(=O)Nc2ccccc2)nc2c(c1=O)SCC2
  92, 92, 101, -8
O=C(CN1C(=O)c2cccc3cccc1c23)N1CCCCC1
  99, 90, 97, -65
CCC(=O)Nc1ccc2c(c1)ncn2C
  98, 87, 95, 0
CCc1cc2c(cc3c(=O)n(CC(=O)NC(C)c4ccc5c(c4)OCCO5)nc(CC)n32)s1 (stereo not given)
  87, 92, 101, nt
